EPAC1 agonist – Validation qHTS for agonist of cAMP-regulated guanine nucleotide exchange factor 3 (EPAC1); EPAC1 Rap1b BODIPY-GDP exchange, fluorescence; Potency, µM, without a hit: max response, positive = active, actives largely listed as activators; Rap guanine nucleotide exchange factor 3 (Homo sapiens), O95398; hit rate 1% among 16,000; active = well fitted activation curve with a large enough effect; inconclusive = small, poorly fitted or top-dose-only effect; inactive = no such curve, though single readings can be large or run the other way;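 note: nearly all actives have a fitted effect of over 70% in size; series mostly up to about 76 or 150 µM; scaled to a cAMP control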
Target sequence (O95398 whole entry, looked up): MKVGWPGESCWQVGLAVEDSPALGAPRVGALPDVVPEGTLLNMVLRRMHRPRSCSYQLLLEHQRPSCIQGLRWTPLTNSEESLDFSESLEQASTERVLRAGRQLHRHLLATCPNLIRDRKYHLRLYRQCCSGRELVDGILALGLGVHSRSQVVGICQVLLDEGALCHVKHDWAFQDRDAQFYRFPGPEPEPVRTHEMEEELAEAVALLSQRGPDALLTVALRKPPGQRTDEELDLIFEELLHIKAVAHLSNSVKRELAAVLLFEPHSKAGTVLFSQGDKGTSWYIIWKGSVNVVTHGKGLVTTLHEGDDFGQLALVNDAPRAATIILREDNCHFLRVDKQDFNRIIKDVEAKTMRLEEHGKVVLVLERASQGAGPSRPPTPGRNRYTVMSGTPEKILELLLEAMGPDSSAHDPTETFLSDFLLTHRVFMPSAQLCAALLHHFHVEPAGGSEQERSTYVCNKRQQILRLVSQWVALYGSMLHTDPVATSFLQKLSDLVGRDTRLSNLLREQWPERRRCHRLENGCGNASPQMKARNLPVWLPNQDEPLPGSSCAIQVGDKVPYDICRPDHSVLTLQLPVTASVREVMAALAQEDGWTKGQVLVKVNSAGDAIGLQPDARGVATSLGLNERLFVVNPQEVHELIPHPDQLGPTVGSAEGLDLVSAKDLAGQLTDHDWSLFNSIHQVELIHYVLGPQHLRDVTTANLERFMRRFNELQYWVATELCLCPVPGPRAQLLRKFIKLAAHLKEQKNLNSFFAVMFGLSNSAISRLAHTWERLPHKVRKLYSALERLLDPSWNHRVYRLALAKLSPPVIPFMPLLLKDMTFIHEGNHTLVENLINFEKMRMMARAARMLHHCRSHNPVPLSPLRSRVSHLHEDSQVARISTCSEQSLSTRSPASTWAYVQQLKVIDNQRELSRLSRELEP
* hit, by the source's call; ? = inconclusive; & = joins results of further samples; [ ] = dose if it differs, or a comment. % is set by controls: 0 for no effect and ±100 for the full control effect; potency is the fitted concentration of half-maximal effect. Some of the compounds tested; count on the stated rates, not on these rows.

EPAC1 agonist | canonical_smiles
? | CCOC(=O)C(CCc1ccccc1)NC(C)C(=O)N1CCCC1C(=O)O (stereo not given)
6.8% | O=S(O)CO
? | COc1ccc(CN2CC[C@H]3C=CC[C@@H](C(=O)N4CCOCC4)[C@H]3C2=O)cc1OC
-8.4% | OCCN1CCN(Cc2ccc3c(c2)CN(Cc2cnc(-c4ccccc4)s2)CCO3)CC1
-14.8% | Cc1cccc(CNc2ccnc(-c3ccc(C(=O)N(C)C)cc3)n2)c1
18.4% | CC[N+]1(CC(=O)c2ccc(OC)cc2)CCCCC1
13.4% | Nc1ccn(C[C@@H](CO)OCP(=O)(O)O)c(=O)n1
-1.4% | COCCN1CCN(C(=O)c2cnn(-c3ncc4c(n3)-c3ccc(OC)cc3CC4)c2C2CC2)CC1
-7.2% | COc1ccc(Oc2ncc3ncc(=O)n(Cc4ccc(F)cc4)c3n2)cc1
-6.7% | CC(=O)Nc1ccc(S(=O)(=O)Nc2ccc([N+](=O)[O-])cc2)cc1
-21.4% | CCOC(=O)Cn1cccc1-c1nc(-c2ccc(OC)cc2)c(-c2ccc(OC)cc2)s1
? | COc1ccc(Oc2ncc3nc(CCc4ccccc4)c(=O)n(CCC#N)c3n2)cc1
2.7% | COc1cccc(Cn2c(=O)c(-c3ccccc3)nc3cnc(OC)nc32)c1
9.9% | Cc1oc(-c2cccc(NC(=O)c3ccccn3)c2)nc1CNC(=O)c1cc(F)c(F)cc1F
16.3%&9.8%&0.3% | NC(=O)N/N=C/c1ccc([N+](=O)[O-])o1
27.5% | O=C(C[N+]1(CC(O)c2ccccc2)CCOCC1)c1ccccc1 (stereo not given)
-1.8% | CCNc1ncc2ncc(=O)n(C3CC3)c2n1
? | O=C(O)CC(O)(CC(=O)O)C(=O)O
-18.7% | Cc1ccnc2c(Cl)ccc(Cl)c12
20.4% | COc1cc(-c2c(-c3cc(OC)c(OC)c(OC)c3)noc2C)ccc1F
26.8% | O=C(c1csnn1)N1CCC2(CC1)CN(c1ncccn1)C2
0.9% | Cc1oc(-c2ccccc2NC(=O)c2ccsc2)nc1CN(C)Cc1ccc2c(c1)CCCN2C
-17.0% | COc1ccc(C(=O)N2CCCC(c3nc(SCc4ccccn4)ncc3C)C2)cc1F (stereo not given)
-4.5% | COC(=O)C1CCCCN1Cc1nc(N2CCCN(C(C)=O)CC2)c2ccccc2n1 (stereo not given)
-0.2% | CNC(=O)OCc1cccc(COC(=O)NC)n1
-12.7%&-14.4% | NC(=NCCCCCCN=C(N)/N=C(\N)Nc1ccc(Cl)cc1)/N=C(\N)Nc1ccc(Cl)cc1
-7.1% | CCCCCc1ccc(-c2cn(CC3CCCCC3)nn2)cc1
? | CC(C)(C)[C@H]1CCC(=O)N(CCSc2ccc(Br)cc2)CC1
100µM* | O=C1C=CC(=C(c2ccc(O)cc2)c2ccc(O)cc2)C=C1
-13.7%&10.1% | NCCNS(=O)(=O)c1cccc2cnccc12
-5.8% | N#CC[C@H](Cc1ccccc1)N1CCN(CCc2ccccc2)CCC1=O
-27.2% | Cc1cnc(C)c(-c2cc(F)c3c(c2)CC(CNC(=O)c2cccc(Cn4cccn4)c2)O3)n1 (stereo not given)

Some of the entries so far, field by field.
> Nc1ccn(C[C@@H](CO)OCP(=O)(O)O)c(=O)n1
  EPAC1 agonist: 13.4%
> COCCN1CCN(C(=O)c2cnn(-c3ncc4c(n3)-c3ccc(OC)cc3CC4)c2C2CC2)CC1
  EPAC1 agonist: -1.4%
> COc1ccc(Oc2ncc3ncc(=O)n(Cc4ccc(F)cc4)c3n2)cc1
  EPAC1 agonist: -7.2%

(further entries)
EPAC1 agonist | canonical_smiles
7.7% | COc1ccc(CN2CC[C@H]3C=CC[C@@H](C(=O)Nc4nccs4)[C@H]3C2=O)cc1OC
-61.5%[inhibitor] | COCC(=O)N1CCC2(CCN(Cc3ccc(C#N)cc3)CC2)CC1
-20.0% | COc1ccc(NC(=O)N2CCCC3(CCN(C(=O)c4ccc(OC)cc4)CC3)C2)cc1
-9.1% | COc1cc(=O)n2c(c1C(=O)NCc1ccc3c(c1)OCO3)CCN(C(=O)c1ccccc1F)CC2
-16.9% | COc1cccc(CNC(=O)c2c(OC)cc(=O)n3c2CCN(C(=O)C2CC24CCCC4)CC3)c1 (stereo not given)
5.1% | CC(C)NC[C@@H](O)COc1ccc(COCCOC(C)C)cc1
1.0% | CN(C)c1cccc2ccccc12
9.5% | NCC(=O)CCC(=O)O
-95.4%[inhibitor] | CCCCCCCCCCCCN1C/C(=C\C(=O)OCC)c2cc(C(F)(F)F)ccc2S1(=O)=O
-27.3% | C[C@@H]1CC[C@@]2(OC1)OC1CC3C4CC=C5CC(O)CCC5(C)C4CCC3(C)C1[C@@H]2C (stereo not given in full)
-6.0% | C[C@H](CCC(=O)O)[C@H]1CC[C@@H]2[C@H]3CC[C@H]4C[C@H](O)CC[C@]4(C)[C@@H]3CC[C@@]21C
-13.1% | CCS(=O)(=O)Nc1cc(C(=O)N[C@H]2CCCCNC2=O)c2c(c1)nc(-c1ccccc1)n2C
-4.4% | C[C@H](N)C(=O)N[C@@H](C)P(=O)(O)O
11.7% | O=C(c1ccco1)N1CCC2(CC1)CN(C(c1ccccc1)c1ccccc1)C2
-11.8%&8.8% | CC(N)=NCc1cccc(CN)c1
-52.9%[inhibitor] | Cc1ccccc1-c1nccc(NCCN2CCOCC2)n1
0.2%&-24.0% | CC(C)=CCC1=C(O)c2ccccc2C(=O)C1=O
-11.0% | Nn1cc(Br)c(=O)[nH]c1=O
-4.6% | COc1ccccc1-c1ccc(C(=O)NCCN2CCOCC2)c(N2CCN(c3ccccc3F)CC2)n1
-109.0%[inhibitor] | COc1ccc(C(=O)N2CCC[C@@]3(CCN(Cc4cc(C(F)(F)F)cc(C(F)(F)F)c4)C3)C2)cc1
-80.5%[inhibitor] | CC(=O)N1CCC[C@@]2(CCN(C(=O)Nc3cccc(C#N)c3)C2)C1
-3.6% | CC(N)C(O)c1cccc(O)c1 (stereo not given)
4.1%&1.6% | c1ccc2nc(C3=NCCN3)ccc2c1
-1.8% | COc1nccnc1NS(=O)(=O)c1ccc(N)cc1
-19.4% | COC(=O)[C@@H]1CCCN1C(=O)c1c(OC)cc(=O)n2c1CCN(Cc1ccc3c(c1)CCO3)CC2
-7.0% | Cc1ccccc1/C=C/C1=NCCN1
-36.6%[inhibitor] | O=c1c(-c2ccc(Cl)cc2)nc2cnc(Nc3ccccc3)nc2n1C1CC1
-0.4% | Cc1cn2c(=O)c3ccccc3nc2n2c(=O)c3ccccc3nc12
-0.8% | COCCn1c(=O)c(-c2ccc(Cl)cc2)nc2cnc(N3CCNCC3)nc21
-12.8%&-24.9% | COc1ccccc1N1CCN(CCn2c(=O)c3c(c4ccccc4n3C)n(C)c2=O)CC1
19.0% | CN(C)c1ncnc2ccc(-c3cccc(C#N)c3)cc12
-33.0% | CN(C)Cc1ccccc1-c1cncnc1NCc1cccs1

Six entries from above, ordered by the number in EPAC1 agonist, smallest number first.
| Molecule | EPAC1 agonist |
| --- | --- |
| CN(C)Cc1ccccc1-c1cncnc1NCc1cccs1 | -33.0% |
| COC(=O)[C@@H]1CCCN1C(=O)c1c(OC)cc(=O)n2c1CCN(Cc1ccc3c(c1)CCO3)CC2 | -19.4% |
| Cc1ccccc1/C=C/C1=NCCN1 | -7.0% |
| COCCn1c(=O)c(-c2ccc(Cl)cc2)nc2cnc(N3CCNCC3)nc21 | -0.8% |
| Cc1cn2c(=O)c3ccccc3nc2n2c(=O)c3ccccc3nc12 | -0.4% |
| CN(C)c1ncnc2ccc(-c3cccc(C#N)c3)cc12 | 19.0% |

Further compounds follow.
EPAC1 agonist | canonical_smiles
? | O=C1C(=O)N(Cc2ccc(Cl)c(Cl)c2)c2ccccc21
13.3% | CN1CCN(c2ncc3nc(-c4cccs4)c(=O)n(Cc4ccc(F)cc4)c3n2)CC1
-1.6% | CCC(O)CNC(=O)c1cnn(-c2ncc3c(n2)-c2ccccc2CCC3)c1C1CC1 (stereo not given)
23.6% | COc1ccc(SC[C@H](Cc2ccccc2)N2CC[C@@H](C(C)(C)C)CCC2=O)cc1
-39.9%[inhibitor] | COc1cccc(-c2ccc3ncnc(NCCNC(C)=O)c3c2)c1
6.3% | O=C(O)CC[C@@H](C(=O)O)N1C(=O)c2ccccc2C1=O
-4.1% | CN(C)c1nc(N)c(C(=O)N=C(N)N)nc1Cl
? | NCCCS(=O)(=O)O
-65.9%[inhibitor] | O=C(c1csnn1)N1CCC[C@@]2(CCN(Cc3ccccc3)C2)C1
0.9% | Cc1cccc(CNc2cc(-c3c(C)noc3C)ncn2)c1
22.8% | CC(C)(O)c1ccccc1CC[C@@H](SCC1(CC(=O)O)CC1)c1cccc(/C=C/c2ccc3ccc(Cl)cc3n2)c1
-11.9% | COc1ccc(-c2nc3cnc(N4CCN(C)CC4)nc3n(Cc3ccc(F)cc3)c2=O)cc1
-4.7% | FC(F)(F)c1cc(CN2CCCC3(CCNCC3)C2)cc(C(F)(F)F)c1
8.3% | CC(=O)[C@H]1CCC2C3CC=C4C[C@@H](OS(=O)(=O)O)CC[C@]4(C)C3CC[C@@]21C (stereo not given in full)
-78.7%[inhibitor] | O=S1(=O)CCOC[C@H](CC2CCCCC2)N1Cc1cccc(F)c1
8.0% | CNC(=O)Oc1ccc2c(c1)C1(C)CCN(C)C1N2C (stereo not given)
-10.5% | COCCC1CCCCN1Cc1nc(N2CCCC2)c2cc(OC)c(OC)cc2n1 (stereo not given)
-31.6% | O=C(O)CCc1cccnc1
22.3% | COCCn1c(=O)c(-c2ccc(F)cc2)nc2cnc(Nc3cccc(OC)c3)nc21
-1.7% | CC1CCN(CCCC(=O)c2ccc(F)cc2)CC1
? | Cn1cc(-c2nc3cnc(N4CCNCC4)nc3n(CCc3ccccc3)c2=O)c2ccccc21
? | CC(=O)OC[C@@]1(O)C[C@@]23CC[C@@H]4c5ccoc5CC[C@@]4(C)[C@@H]2CCC1C3
4.5% | COc1ccc2c(=O)c3ccccc3oc2c1
-3.0% | CCOC(=O)c1c[nH]c2cc(OCC(C)C)c(OCC(C)C)cc2c1=O
6.0%&2.5% | NC(=O)c1ncn([C@@H]2O[C@H](CO)[C@@H](O)[C@H]2O)n1
17.8% | CC(C)NC(=O)N1CC[C@@]2(CCCN(C(=O)c3cccc(F)c3)C2)C1
8.3% | O=C1C(c2ccccn2)=[N+]([O-])c2ccccc21
10.0% | CCCS(=O)(=O)NCc1c(C)ncc2c1CCN(C(=O)c1cccc(-c3ccccc3F)c1)C2
-35.7%[inhibitor] | Cc1cccc(CNc2nc(-c3c(C)noc3C)nc3ccccc23)c1
-13.4% | Cc1noc(C)c1C(=O)N1CCC2(CCCN(c3ncccn3)C2)CC1
-2.3%&-25.7%&-11.2% | COc1cc(C(=O)OCCCN2CCCN(CCCOC(=O)c3cc(OC)c(OC)c(OC)c3)CC2)cc(OC)c1OC
17.9% | Nc1ncnc2c1nc(Cl)n2C1OC(CO)C(O)C1O (stereo not given)
4.2% | Cc1cc(C)cc(C(=O)NCc2nc(-c3cccc(NC(=O)c4ccccn4)c3)oc2C)c1
-4.1%&-21.9% | COc1cc2c(cc1OC)C(c1ccc(N)cc1)=NNC(=O)C2
0.0% | Cc1cnc(-n2ncc(C(=O)NCC(C)(C)N3CCOCC3)c2C)nc1-c1cccs1
-41.3%[inhibitor] | CCCCCCCCCCCCCC(=O)O[C@H](CC(=O)O)C[N+](C)(C)C
-31.7%[inhibitor] | COc1ccc(-n2c(=O)c(-c3cc(F)cc(F)c3)nc3cncnc32)cc1
-29.1% | CC(C)(C)OC(=O)NS(=O)(=O)NOCc1ccccc1
? | Cc1ccc(N)cc1O
5.1% | COc1ccc2[nH]cc(CCNc3ncncc3-c3cccnc3)c2c1
? | COc1cc(-c2noc(C)c2C#Cc2ccccn2)cc(OC)c1OC
17.6% | COCCN1CCN(C(=O)c2sc3ncnc(NCC4CCCO4)c3c2C)CC1 (stereo not given)
1.4% | CCc1noc(C)c1C(=O)N1CCOc2ccc(CN3CCN(c4ccccn4)CC3)cc2C1
? | COc1cc(OC)c2c(=O)c(-c3ccccc3)coc2c1
1.5% | CNCCc1cnc(CCC(c2ccccc2)c2ccccc2)[nH]1
-32.8% | CN(C)c1ccc(-c2nccc(NCc3ccccc3)n2)cc1
-4.3% | CCC(c1ccc(O)cc1)C(CC)c1ccc(O)cc1 (stereo not given)
25.8% | CCCCN1CC[C@H]2C=CC[C@@H](C(=O)N3CCOCC3)[C@H]2C1=O
3.5% | COc1cc(=O)n2c(c1C(=O)NCc1ccco1)CCN(Cc1cccc(Cl)c1)CC2
18.9%&-9.2% | Nc1ncnc2c1ncn2[C@@H]1O[C@H](COP(=O)(O)OP(=O)(O)OP(=O)(O)OP(=O)(O)OC[C@@H]2O[C@H](n3cnc4c(N)ncnc43)[C@@H](O)[C@H]2O)[C@@H](O)[C@H]1O
-1.0% | CC(=O)Nc1ccccc1-c1nc(CNC(=O)c2ccc(Cl)cc2)c(C)o1
-8.3% | O=C(NCCNC[C@@H](O)COc1ccc(O)cc1)N1CCOCC1
-4.0% | OC[C@H]1O[C@@H](Oc2ccc(O)cc2)[C@H](O)[C@@H](O)[C@@H]1O
-8.8% | COc1ccc2[nH]cc(CCNc3ccnc(-c4cccnc4)n3)c2c1
-6.6% | CCNc1ncc2nc(-c3ccc(F)cc3)c(=O)n(C[C@H]3CCCO3)c2n1
? | CC(=O)OC1CC2C(C)(C)C(=O)C=C[C@]2(C)C2CC[C@@]3(C)C(c4ccoc4)OC(=O)C4O[C@@]43[C@]12C (stereo not given in full)
-7.1% | Cn1nccc1C(=O)NCC1CCC2(CCN(Cc3cccc4ncccc34)CC2)O1 (stereo not given)
-12.4% | COC(=O)CC1C(C)(C)C(=O)C2CC3=C(CC[C@]4(C)C3=CC(=O)OC4c3ccoc3)[C@@]1(C)C2=O (stereo not given in full)
-1.8% | CC(C)(CO)NC(=O)c1cnn(-c2ncc3c(n2)-c2ccccc2CC3)c1C1CC1
